Assay outcomes as filed in PubChem.
Lassa entry inh – inhibitors of Lassa virus binding or cell entry | Potency, µM (highest dose often 37.9 µM), without a hit: top-dose activity change, negative = inhibition, hits mostly inhibitors | Lassa virus pseudotype entry inhibition, cell reporter; control for the full effect not named in the record | hit rate 1.2% among 300,000 | AID 540256; active means well fitted inhibition curve with a large enough effect; inconclusive means small, poorly fitted or top-dose-only effect, or effect the other way; inactive means flat fitted curve, though single readings scatter; tested in HEK293 cells; also: % is scaled to controls: 0 for no effect and ±100 for the full control effect; nearly all actives have a fitted effect of over 50% in size; luciferase read-out
StopGo reporter – lowers the luciferase signal of an FMDV 2A StopGo reporter; human cells with a luciferase reporter of 2A StopGo recoding; control for the full effect not named in the record; Potency, µM (series often up to 57.9 µM), without a hit: at the top dose signal change, negative = less light; hit rate 1.2% among 410,000; active = well fitted falling curve with a large enough effect; inconclusive = small, poorly fitted or top-dose-only effect; inactive = no such curve, though single readings can be large or run the other way; tested in HEK293T cells; also: % is scaled to controls: 0 for no effect and ±100 for the full control effect; nearly all actives have a fitted effect of over 45% in size; luciferase light after 4 h
MARV entry inh – Marburg virus entry inhibition | Potency, µM (doses to about 37.8 µM), for inactives: at the top dose activity change, negative = inhibition, actives largely listed as inhibitors | hit rate 1.8% among 300,000 | Marburg virus pseudotyped entry inhibition, cell reporter; control for the full effect not named in the record; about a third of the inactives were read at about 46 µM; active = well fitted inhibition curve with a large enough effect; inconclusive = small, poorly fitted or top-dose-only effect, or effect the other way; inactive = flat fitted curve, though single readings scatter; tested in HEK293 cells; about a fifth of its hits are not listed in these tables; also: % is scaled to controls: 0 for no effect and ±100 for the full control effect; luciferase read-out
Cruzain noTriton – inhibitors of Trypanosoma cruzi cruzain without detergent | P25779 | hit rate 2.3% among 200,000 | AID 1476 | purified cruzain, Z-FR-AMC fluorescence, no detergent | Potency, µM, for inactives: max response, negative = inhibition, actives largely listed as inhibitors; active = well fitted curve in the direction sought with a large enough effect; inconclusive = small, poorly fitted or top-dose-only effect, or another doubt; inactive = no such curve, though single readings can be large; an effect the other way counts as inactive or inconclusive;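 also: plate controls were enzyme without inhibitor for no effect and buffer without enzyme for full effect; nearly all actives have a fitted effect of over 40% in size; top concentration of the series not given in the record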
Target sequence (P25779 123-467 limits assumed): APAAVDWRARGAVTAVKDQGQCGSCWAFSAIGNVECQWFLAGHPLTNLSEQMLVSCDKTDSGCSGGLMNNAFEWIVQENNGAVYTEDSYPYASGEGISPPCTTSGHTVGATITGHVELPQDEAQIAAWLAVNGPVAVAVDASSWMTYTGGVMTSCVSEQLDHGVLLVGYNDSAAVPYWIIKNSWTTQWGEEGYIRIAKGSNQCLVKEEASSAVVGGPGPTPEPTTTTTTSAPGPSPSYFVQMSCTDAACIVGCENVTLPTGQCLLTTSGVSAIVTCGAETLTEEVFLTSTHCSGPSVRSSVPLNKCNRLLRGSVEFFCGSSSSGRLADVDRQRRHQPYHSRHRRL
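Detergent-free condition (0.00005% Triton X-100) in acetate buffer pH 5.5 with DTT. 1.5 nM enzyme and compound were pre-mixed 15 min, then 2 uM Z-FR-AMC substrate added; reaction progress from fluorescence change between first and third reads (60 s).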
SARS PLpro yeast – SARS-CoV PLP inhibition in yeast. S. cerevisiae expressing SARS-CoV PLpro, growth rescue; control for the full effect not named in the record. Potency, µM (titrated, usually from 32.9 µM), inactives show top-dose activity, positive = growth rescue. hit rate 0.19% among 330,000. AID 485353; also: 0% is about no effect; nearly all actives have a fitted effect of over 55% in size; growth read by luminescence after 48 h
Cruzain inh Det – cruzain (T. cruzi) inhibition with detergent | Potency, µM, inactives show max response, negative = inhibition, most hits filed as inhibitors | purified cruzain, Z-FR-AMC fluorescence, 0.01% Triton | hit rate 0.43% among 200,000 | AID 1478; active = well fitted curve in the direction sought with a large enough effect; inconclusive = small, poorly fitted or top-dose-only effect, or another doubt; inactive = no such curve, though single readings can be large; an effect the other way counts as inactive or inconclusive;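 also: plate controls were neutral wells for no effect and buffer without enzyme for full effect; nearly all actives have a fitted effect of over 40% in size; top concentration of the series not given in the record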
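Detergent-containing arm of a paired screen for aggregation-based inhibition: 0.01% Triton X-100 present. Cruzain at 1.5 nM cleaved 2 uM Z-FR-AMC at pH 5.5 with 5 mM DTT; AMC fluorescence gain over 60 s measured activity.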
NS1 function inh – influenza NS1 inhibition. S. cerevisiae slowed by influenza A NS1, growth recovery by OD600. Potency, µM (titrated, usually from 46.1 µM), without a hit: top-dose activity, positive = more growth. hit rate 0.4% among 270,000. AID 2326; also: actives are rising curves; nearly all actives have a fitted effect of over 50% in size
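Recovery from NS1-induced slow growth read by OD600 in budding yeast switched to galactose assay medium (pH 6.0, -URA) at 1:100 dilution. Compound 23 nl per well; the matching strain lacking NS1 serves as control.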
RE007 growth inh – less growth of the S. pombe RE007 Vpr strain; AID 651644; Potency, µM (titrated, usually from 92.2 µM), inactives show at the highest dose activity change, negative = less growth; S. pombe RE007 Vpr strain, BacTiter-Glo ATP luminescence, 24 h; control for the full effect not named in the record; hit rate 0.21% among 360,000; active = well fitted falling curve with a large enough effect; inconclusive = small, poorly fitted or top-dose-only effect; inactive = no such curve, though single readings can be large or run the other way;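 also: % is scaled to controls: 0 for no effect and ±100 for the full control effect; nearly all actives have a fitted effect of over 50% in size; the assay follows cell death caused by Vpr and the record does not say whether a fall means rescue or toxicity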
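Fission yeast RE007 carrying one integrated HIV-1 vpr copy, seeded at OD 0.01 in PMG+AL medium with 23 nL pinned compound. Grown 24 h at 30 degrees; viability read by BacTiter-Glo luminescence after 5 min.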
Starred values were filed as active, the others as inactive; ? = inconclusive; . = no result given; & = joins results of further samples; [ ] = remark or other dose. Unless noted, calls follow the shape of the dose curve; as a rule, active means well fitted rising curve with a large enough effect; inconclusive means small, poorly fitted or top-dose-only effect; inactive means no such curve, though single readings can be large or run the other way. Potency is read from the fitted curve at half-maximal effect.

SMILES	Lassa entry inh	StopGo reporter	MARV entry inh	Cruzain noTriton	SARS PLpro yeast	Cruzain inh Det	NS1 function inh	RE007 growth inh
Cc1ccc(NC(=O)CN(C)C(=O)c2cccnc2Nc2cccc(C(F)(F)F)c2)cc1	.	-26.3%	.	.	-18.4%	.	-53.8%	17.9%
CCN(CC(=O)NCCc1ccccc1)S(=O)(=O)c1ccccc1	-2.3%	12.8%	29.2%[46.1 µM]	.	0.7%	.	-8.4%	4.0%
Cn1c(C(=O)N2CCc3ccccc3C2)cc2oc3ccccc3c21	8.4%	34.7%[activator]	?	9.9%	-58.2%	-10.6%	-22.6%	-20.1%
Cc1csc(NC(=O)CSc2nncs2)n1	5.6%	-1.2%	?	.	-2.2%	.	.	5.4%
Cc1ccc(NC(=O)COC(=O)c2ccc3c(c2)C(=O)N(CCc2ccccc2)C3=O)c(C)c1	-7.5%	2.3%	-0.7%	25.1µM*	-10.9%	-1.5%	7.6%	-16.3%
CCOC(=O)c1nn(-c2ccccc2)c(=O)c(C#N)c1C	?	0.3%	27.3%&27.3%[46.1 µM]	-15.4%	6.1%	-2.1%	-3.9%	24.7%
COc1ccc(Cn2nnc(C(=O)Nc3ccc(F)cc3)c2N)cc1	-4.2%	8.4%	5.7%	-11.4%	9.2%	-1.7%	-0.4%	-5.9%
CCOc1ccc(Br)cc1/C(C)=N\NC1=NCCN1	?	0.0%	?	1.3%	-14.9%	1.8%	-2.5%	-3.2%
O=C(COC(=O)c1cccc(N2C(=O)c3ccccc3C2=O)c1)Nc1ccccc1	3.7%	11.3%	15.8%	5.6%	6.1%	-1.9%	10.7%	.
O=C(Nc1ccc(Oc2ccccc2)nc1)C1CCCCN1Cc1ccco1 (stereo not drawn)	.	4.1%	.	.	-3.2%	.	-5.2%	3.3%
CCc1noc(C)c1C(=O)Nc1nc(-c2ccc(Cl)cc2Cl)c(C)s1	-11.6%	?	-9.7%	?	2.6%	-1.5%	5.5%	4.0%
CCc1n[nH]c(=S)n1/N=C/c1ccc2c(c1)OCO2	1.0%	5.3%	4.2%	4.8%	7.5%	-10.8%	13.8%	-0.7%
Fc1ccc(COc2ccc(-c3nnco3)cc2)cc1	17.1%	35.0%[activator]	?	.	0.3%	.	-40.2%	-2.1%
COc1ccc(C(=O)NC(=S)Nc2cccc3ncccc23)cc1[N+](=O)[O-]	.	-20.8%	.	.	-2.0%	.	4.8%	-6.2%
COc1ccc(N2CCN(C(=O)Cc3c(C(=O)O)c(C)cn3C)CC2)cc1	28.4%[46.1 µM]	-6.0%	.	-13.1%	.	-0.2%	.	.
COc1cccc(NC(=O)CN(C)C(=O)c2cccc(S(=O)(=O)N3CCN(c4ccccc4)CC3)c2)c1	.	0.0%	.	.	2.7%	.	-13.7%	14.6%
CC1CC(C)CN(C(=O)COC(=O)c2cccc(S(=O)(=O)N(C)c3ccccc3)c2)C1 (stereo not drawn)	?	-15.5%	19.9%	.	-0.1%	.	.	11.6%
O=C(Nc1nccs1)c1cn(-c2ccccc2)nc1-c1ccccc1	?	?	?	-7.0%	?	-1.1%	20.7%	3.7%
CCCn1nnnc1SCC(=O)NC1CCCC1	9.8%	-16.5%	9.5%[46.1 µM]	.	0.4%	.	-1.2%	10.1%
CCOC(=O)c1ccc(N2C(=O)CC(N3CCC(C(=O)OCC)CC3)C2=O)cc1 (stereo not drawn)	7.8%	0.0%	1.7%	7.0%	-23.2%	7.0%	-258.6%	12.6µM*
COC(=O)c1nc(NC(=O)c2ccc(C(C)(C)C)cc2)n[nH]1	-1.9%	-10.1%	?	.	-0.2%	.	.	-2.0%
CCOc1ccc(NC(=O)NCCN2C(C)CCCC2C)cc1 (stereo not drawn)	-4.0%	8.4%	?	-4.1%	7.1%	5.8%	1.2%	2.0%
CCN(CC)c1ccc2nc3ccc(N)cc3[n+](-c3ccccc3)c2c1	8.91µM*	?	?	.	-15.9%	.	.	22.4µM*
CCC(=O)N(CCC1(C(C)C)CCOC(C)(C)C1)C(C)c1cccs1 (stereo not drawn)	.	-16.8%	.	.	-0.4%	.	-3.1%	5.5%
C=CCOCC(O)Cn1c(N2CCCC2)nc2c1c(=O)n(C)c(=O)n2C (stereo not drawn)	.	-3.4%	.	.	-8.0%	.	13.3%	9.1%
O=Cc1cc2ccccc2nc1SCc1ccc(Cl)cc1	10µM*	-21.4%	?	-0.6%	-12.7%	-0.8%	-4.2%	15.7%
COc1cccc(-c2nc(CS(=O)(=O)CC(=O)Nc3ccc(C)c(Cl)c3)c(C)o2)c1	1.7%[46.1 µM]	-17.0%	?	-8.4%	.	-2.8%	.	.
CC(NC(=O)COc1ccccc1)C(c1cccs1)N1CCCC1 (stereo not drawn)	19.1%	-2.4%	-19.8%[46.1 µM]	.	-3.7%	.	.	0.6%
COc1ccc(-c2[nH]ncc2CN(C)Cc2ccccn2)c(OC)c1	15.1%	7.4%	0.3%	.	-1.0%	.	5.2%	1.9%
COc1ccc(N=Cc2sc(O)c3ccccc23)cc1	?	-11.6%	?	6.1%	-6.6%	-2.2%	6.6%	-6.0%
COc1ccc(Nc2oc(-c3ccccc3Cl)nc2C#N)cc1	-25.2%	4.6%	?	-28.1%	-7.4%	?	9.2%	3.2%
Cc1ccc(-c2nnn(CC(=O)N(Cc3cccs3)C(C(=O)NCC3CCCO3)c3ccco3)n2)o1 (stereo not drawn)	.	-15.4%	.	.	-0.2%	.	-6.8%	-6.0%
COc1ccccc1NC(=O)c1ccc(Br)c(S(=O)(=O)N2CCCC2)c1	2.5%	?	-29.7%	.	1.9%	.	-7.2%	4.5%
O=C1CSC(=S)N1/N=C/c1ccc(C(F)(F)F)cc1	23.2%	-2.8%	-4.3%	.	2.3%	.	3.5%	1.0%
CC1CCCCN1C(=O)c1ccc2c(c1)N(Cc1cccc(Cl)c1)C(=O)c1ccccc1S2=O (stereo not drawn)	-10.6%[46.1 µM]	6.4%	.	-8.8%	.	-3.9%	.	.
Cc1cnc(C(=O)Nc2ccc(C)c(S(=O)(=O)N(C)C)c2)cn1	22.3%	41.8%[activator]	-1.0%	2.2%	-10.8%	0.6%	18.1%	-1.3%
CCN(C(=O)COC(=O)c1c2c(nc3ccccc13)/C(=C/c1ccccc1)CC(C)C2)C1CCS(=O)(=O)C1 (stereo not drawn)	?	-26.6%	?	?	-18.4%	-7.5%	?	.
Cc1cc(NC(=O)NC(=O)c2ccccc2NC(=O)CN)ccc1Oc1ncc(Br)cn1	-0.4%	-4.5%	?	.	.	.	.	14.4%
C/C(=N\NC(=O)CCc1c[nH]c2ccccc12)c1cccc([N+](=O)[O-])c1	?	-4.6%	?	-7.4%	16.5%	-10.8%	5.8%	7.4%
COc1ccc(Cc2nnc(NC(=O)c3ccccc3)s2)cc1OC	-0.7%	-8.8%	?	.	2.8%	.	14.0%	1.8%
Cc1ccc(Cn2c(=O)c3cccnc3n(CC(=O)Nc3cccc(C(F)(F)F)c3)c2=O)cc1	?	-13.4%&-18.0%	?	?	15.8%	-15.4%&-8.0%	12.4%	-14.1%
COc1ccc(CNC(=O)c2ccc(-c3nc(CSc4ccccc4)c(C)o3)cc2)c(OC)c1	27.4%[46.1 µM]	0.0%	.	-12.8%	.	-4.1%	.	.
CCOc1cccc(CC(=O)N2CCc3c([nH]c4ccccc34)C2c2ccc(SC)cc2)c1OCC (stereo not drawn)	?	0.0%	?	15.0%	.	1.9%	.	.
Cc1cccc(C(=O)Nc2ccc(OCc3cc(=O)n4ccc(C)cc4n3)cc2)c1	12.8%[46.1 µM]	-5.3%	.	1.6%	.	3.0%	.	.
Cc1cc2oc(=O)cc(CN3CCC(C)CC3)c2c(C)c1Cl	0.0%	40.8%[activator]	?	-5.9%	-0.3%	-2.7%	-16.9%	-3.3%
Cc1ccccc1NC(=O)Nc1nnc(N2CCCCCC2)s1	-25.8%[46.1 µM]	32.2%[activator]	-12.2%[46.1 µM]	11.9%	.	-3.6%	.	.
COc1ccc(NC(=O)c2nc(S(C)(=O)=O)ncc2N(Cc2ccc(C)cc2)Cc2ccco2)cc1Cl	-14.7%[46.1 µM]	-17.8%	?	10µM*	.	-3.4%	.	.
O=C(O)c1cccc(NS(=O)(=O)c2ccc3c4c(cccc24)C(=O)N3)c1	2.8%	18.3%	2.3%[46.1 µM]	.	1.8%	.	18.8%	-3.9%
Cc1ccc(NC(=O)CSCC(=O)Nc2cc(C(F)(F)F)ccc2N2CCOCC2)cc1	-5.4%	-13.4%	?	.	-3.4%	.	.	-13.5%
CC(=O)c1ccccc1NS(=O)(=O)c1cccc2nsnc12	.	13.3%	.	.	-3.4%	.	-4.9%	-1.4%
COc1ccc(NC(=O)Cn2nnc(-c3ccc(CN4CCOCC4)cc3)n2)c(OC)c1	-2.4%	-1.4%	21.3%	-13.6%	-1.9%	-0.3%	-17.0%	3.8%
Cc1ccc(NC(=O)COC(=O)[C@H](C)NC(N)=O)c(C)c1	-1.8%	-6.6%	-1.4%	.	0.0%	.	.	5.7%
Cc1ccc(S(=O)(=O)N2CCC(C(=O)N[C@H](C(=O)NCC3CCCO3)C(C)C)CC2)cc1 (stereo partly drawn)	-7.7%	-19.7%	2.9%&2.9%	4.3%	0.5%	1.9%	-6.1%	-12.3%
COc1ccc(NC(=O)C2=C(C)Nc3ncnn3C2c2ccc(O)cc2)cc1 (stereo not drawn)	-13.9%[46.1 µM]	5.0%	.	-5.8%	.	-2.2%	.	.
CN(CC(=O)NCCc1ccccc1)Cc1ccco1	15.8%[46.1 µM]	39.0%[activator]	14.8%[46.1 µM]	.	-2.5%	.	-5.0%	119.1%
